SARS PLP yeast: blocks SARS-CoV papain-like protease in a yeast assay. S. cerevisiae expressing SARS-CoV PLpro, growth rescue; control for the full effect not named in the record. Potency, µM (titrated, usually from 32.9 µM), without a hit: top-dose activity, positive = growth rescue. hit rate 0.19% among 330,000. AID 485353; active means well fitted rising curve with a large enough effect; inconclusive means small, poorly fitted or top-dose-only effect; inactive means no such curve, though single readings can be large or run the other way; further: 0% is about no effect; nearly all actives have a fitted effect of over 55% in size; growth read by luminescence after 48 h
NS1 function inh: blocks influenza NS1 protein function; S. cerevisiae slowed by influenza A NS1, growth recovery by OD600; Potency, µM (top dose mostly 46.1 µM), inactives show at the top dose activity, positive = more growth; hit rate 0.4% among 270,000; AID 2326; active means well fitted rising curve with a large enough effect; inconclusive means small, poorly fitted or top-dose-only effect; inactive means no such curve, though single readings can be large or run the other way; further: nearly all actives have a fitted effect of over 50% in size
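S. cerevisiae expressing influenza A NS1, grown in glucose, washed, then diluted 1:100 into pH 6.0 -URA galactose medium with 23 nl compound. Growth recovery read as OD600; NS1-free strain serves as control.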
Marburg entry inh: blocks Marburg virus binding to or entry into cells; AID 540276; Marburg virus pseudotyped entry inhibition, cell reporter; control for the full effect not named in the record; about a third of the inactives were read at about 46 µM; Potency, µM (doses to about 37.8 µM), inactives show at the highest dose activity change, negative = inhibition, hits mostly inhibitors; hit rate 1.8% among 300,000; active = well fitted inhibition curve with a large enough effect; inconclusive = small, poorly fitted or top-dose-only effect, or effect the other way; inactive = flat fitted curve, though single readings scatter; tested in HEK293 cells; about a fifth of its hits are not listed in these tables; further: on the % scale 0 is the no-effect control and ±100 the full control effect; luciferase read-out
RE007 growth inh: less growth of the S. pombe RE007 Vpr strain | AID 651644 | hit rate 0.21% among 360,000 | Potency, µM (titrated, usually from 92.2 µM), without a hit: at the top dose activity change, negative = less growth | S. pombe RE007 Vpr strain, BacTiter-Glo ATP luminescence, 24 h; control for the full effect not named in the record; active = well fitted falling curve with a large enough effect; inconclusive = small, poorly fitted or top-dose-only effect; inactive = no such curve, though single readings can be large or run the other way;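 further: on the % scale 0 is the no-effect control and ±100 the full control effect; nearly all actives have a fitted effect of over 50% in size; the assay follows cell death caused by Vpr and the record does not say whether a fall means rescue or toxicity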
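Fission yeast RE007 carrying one integrated HIV-1 vpr copy, seeded at OD 0.01 in PMG+AL medium with 23 nL pinned compound. Grown 24 h at 30 degrees; viability read by BacTiter-Glo luminescence after 5 min.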
Cruzain Triton: blocks cruzain activity in presence of Triton detergent; hit rate 0.43% among 200,000; Potency, µM, inactives show max response, negative = inhibition, most hits filed as inhibitors; AID 1478; purified cruzain, Z-FR-AMC fluorescence, 0.01% Triton; P25779;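 further: plate controls were neutral wells for no effect and buffer without enzyme for full effect; nearly all actives have a fitted effect of over 40% in size; top concentration of the series not given in the record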
Target sequence (P25779 123-467 limits assumed): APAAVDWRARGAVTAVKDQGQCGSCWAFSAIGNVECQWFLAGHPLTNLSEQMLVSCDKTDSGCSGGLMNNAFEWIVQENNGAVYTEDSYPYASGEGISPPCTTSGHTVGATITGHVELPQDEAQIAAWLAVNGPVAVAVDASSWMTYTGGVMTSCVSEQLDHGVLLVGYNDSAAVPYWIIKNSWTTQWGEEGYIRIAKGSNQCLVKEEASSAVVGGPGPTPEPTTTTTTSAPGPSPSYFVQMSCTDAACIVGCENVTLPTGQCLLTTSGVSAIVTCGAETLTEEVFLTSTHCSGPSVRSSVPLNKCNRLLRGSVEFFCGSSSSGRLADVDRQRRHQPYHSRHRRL
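Purified cruzain (1.5 nM final) was preincubated with compounds for 15 min at room temperature in 100 mM sodium acetate pH 5.5, 5 mM DTT, 0.01% Triton X-100. Reaction started with 2 uM Z-FR-AMC; AMC fluorescence change over 60 s gave activity.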
Cruzain noTriton: inhibitors of Trypanosoma cruzi cruzain without detergent | P25779 | hit rate 2.3% among 200,000 | AID 1476 | purified cruzain, Z-FR-AMC fluorescence, no detergent | Potency, µM, for the others: max response, negative = inhibition, usual class: inhibitors;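 further: plate controls were enzyme without inhibitor for no effect and buffer without enzyme for full effect; nearly all actives have a fitted effect of over 40% in size; top concentration of the series not given in the record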
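Detergent-free condition (0.00005% Triton X-100) in acetate buffer pH 5.5 with DTT. 1.5 nM enzyme and compound were pre-mixed 15 min, then 2 uM Z-FR-AMC substrate added; reaction progress from fluorescence change between first and third reads (60 s).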
2A StopGo: lowers the luciferase signal of an FMDV 2A StopGo reporter; human cells with a luciferase reporter of 2A StopGo recoding; control for the full effect not named in the record; Potency, µM (series often up to 57.9 µM), for inactives: at the top dose signal change, negative = less light; hit rate 1.2% among 410,000; AID 1159524; active = well fitted falling curve with a large enough effect; inconclusive = small, poorly fitted or top-dose-only effect; inactive = no such curve, though single readings can be large or run the other way; tested in HEK293T cells; further: on the % scale 0 is the no-effect control and ±100 the full control effect; nearly all actives have a fitted effect of over 45% in size; luciferase light after 4 h
Lassa entry inh: Lassa virus entry inhibition | Lassa virus pseudotype entry inhibition, cell reporter; control for the full effect not named in the record | Potency, µM (highest dose often 37.9 µM), for the others: at the top dose activity change, negative = inhibition, most hits filed as inhibitors | AID 540256 | hit rate 1.2% among 300,000; active means well fitted inhibition curve with a large enough effect; inconclusive means small, poorly fitted or top-dose-only effect, or effect the other way; inactive means flat fitted curve, though single readings scatter; tested in HEK293 cells; further: on the % scale 0 is the no-effect control and ±100 the full control effect; nearly all actives have a fitted effect of over 50% in size; luciferase read-out
An asterisk follows results filed as active; ? = inconclusive; nt = no result given; & = joins results of further samples; [ ] = remark or other dose. Unless noted, the call rests on the fitted dose curve; in most records, active means well fitted curve in the direction sought with a large enough effect; inconclusive means small, poorly fitted or top-dose-only effect, or another doubt; inactive means no such curve, though single readings can be large; an effect the other way counts as inactive or inconclusive. Potency means the concentration at half of the fitted maximal effect.

SMILES	SARS PLP yeast	NS1 function inh	Marburg entry inh	RE007 growth inh	Cruzain Triton	Cruzain noTriton	2A StopGo	Lassa entry inh
Cc1cc(C)c2cccc(NC(=S)NC(=O)c3ccccc3)c2n1	?	-0.7%	3.4%	2.0%	-3.4%	?	2.2%	-0.4%
O=S(=O)(c1ccc2c(c1)CCCN2)N1CCCC2CCCCC21 (stereo unspecified)	-7.4%	-11.3%	?	-2.2%	nt	nt	14.7%	?
COc1ccc(-c2ccc(-c3cc(=O)oc4cc(OC)c(OC)c(OC)c34)cc2)cc1OC	-2.9%	nt	-1.3%	8.0%	0.6%	?	?	nt
COC(=O)c1c(NC(=O)COC(=O)c2ccc(C)s2)sc2c1CCCCC2	?	17.6%	-3.8%	11.3%	1.2%	-1.8%	22.3%	10.1%
CCC(c1nc2ccccc2c(=O)n1-c1cccnc1)N1C(=O)c2ccccc2C1=O (stereo unspecified)	17.3%	-3.2%	1.5%	8.3%	0.7%	13.8%	nt	-0.3%
CCC(CC)NC(=O)c1nn(Cc2ccccc2)c(=O)c2ccccc12	-7.0%	10.3%	-0.6%[46.1 µM]	-10.6%	nt	nt	11.6%	?
COC(=O)c1cc(NC(=O)CN(c2ccccc2OC)S(=O)(=O)c2ccccc2)ccc1Cl	6.5%	20.0%	?	-13.0%	1.3%	?	?	?
COc1cccc(NC(=O)c2ccc[n+](C)c2)c1	-1.4%	4.9%	nt	-1.7%	nt	nt	-3.6%	nt
Cn1nc([N+](=O)[O-])nc1N1CCOCC1	12.8%	0.3%	-6.0%[46.1 µM]	2.4%	-0.8%	0.1%	-7.9%	1.1%[46.1 µM]
COCCNC(=S)Nc1ccc2nc(N3CCN(C)CC3)cc(C)c2c1	16.9%	1.9%	-0.6%[46.1 µM]	2.6%	nt	nt	-16.6%	7.1%[46.1 µM]
O=C(CSc1nc(-c2ccccc2F)nc2cc(=O)[nH]n12)Nc1cccc(C(F)(F)F)c1	nt	nt	nt	nt	2.2%	?	-18.4%	5.4%[46.1 µM]
CCOCCn1c(=NC(=O)c2cc3ccccc3oc2=O)sc2cc(S(N)(=O)=O)ccc21	9.9%	-8.7%	?	-12.6%	-4.1%	17.8%	-15.0%	15.5%
Cc1ccc(-n2ncc3c(SCc4cccnc4)ncnc32)c(C)c1	-0.4%	nt	?	35.5%	nt	nt	-26.7%	2.82µM*
C=CCNC(=S)NNC(=O)c1ccc(OCCCC)cc1	?	17.5%	?	9.8%	-3.5%	-10.8%	-15.2%	-4.8%
CCn1c(CNC(=O)c2ccc3c(c2)OCO3)nnc1SCC(=O)Nc1cc(C)ccc1OC	nt	-31.4%	?	-11.1%	4.2%	10.4%	?	6.6%
O=C(CNC(=S)N(CCCN1CCOCC1)Cc1cccs1)NCc1ccccc1Cl	-0.2%	-9.2%	nt	4.9%	nt	nt	-3.5%	nt
Cc1ccc(S(=O)(=O)N(C)CCCC(=O)n2nc(C)cc2C)cc1	-0.3%	-3.6%	8.8%	3.0%	2.4%	10.0%	-10.9%	-0.2%
CN(C)CCCCSC(=N)N	nt	-3.4%	?	nt	-3.1%&-1.6%	-7.7%&3.3%	-4.2%&-24.4%	nt
O=C(O)c1ccc(NC(=O)c2cc3ccccc3o2)cc1	2.3%	-25.8%	nt	-8.7%	-6.1%	-4.8%	54.6%&36.0%[activator]	13.6%[46.1 µM]
Cc1nccn1CC(O)COc1ccc([N+](=O)[O-])cc1 (stereo unspecified)	-2.6%	0.1%	-8.8%[46.1 µM]	2.4%	nt	nt	-2.8%	23.4%[46.1 µM]
CCOC(=O)CNc1nc(Cl)nc(Nc2ccccc2)n1	-1.7%	-4.5%	0.0%[46.1 µM]	2.8%	nt	nt	26.2%	10.8%
CCCN=C1N(C)C[C@@H]2[C@@H]3C(=O)N(C)C(=O)[C@@H]3[C@](C)(C(=O)OC)N12	29.0%	nt	1.0%	7.1%	nt	nt	-8.3%	nt
Cc1cc(C)c2[nH]c(O)c(N=NC(=S)NCC3CCCO3)c2c1 (stereo unspecified)	-5.6%	-2.3%	8.0%	3.5%	-4.3%	-6.0%	-6.3%	0.1%
Cc1cc(NC(=O)c2ccc(C#N)cc2)on1	-1.1%	1.1%	nt	12.0%	nt	nt	27.8%	nt
Cc1ccc2sc(N3CCN(CCNC(=O)c4ccco4)CC3)nc2c1C	3.1%	nt	?	-9.3%	nt	nt	-10.5%	8.2%
Cc1cccc(NC(=O)Cn2c(=O)n(CCc3ccccc3)c(=O)c3sc4ccccc4c32)c1	nt	nt	17.3%[46.1 µM]	nt	-0.1%	1.9%	1.7%	2.3%[46.1 µM]
CCOc1ccccc1N1CCN(C(=O)c2ccc3[nH]c4c(c3c2)CCCC4)CC1	-16.8%	11.4%	?	1.0%	-11.5%	3.3%	0.0%	?
O=C(O)Cn1cnc2sc3c(c2c1=O)CCCC3	-0.4%	-0.2%	6.2%[46.1 µM]	5.3%	nt	nt	-9.3%	2.7%
S=C(Nc1ccc(Cl)cc1)c1sc(N2CCCCC2)nc1N1CCOCC1	-14.1%	11.9%	-0.5%	-2.5%	-3.1%	17.1%	-11.6%	-28.7%
CC1(c2ccc3ccccc3c2)NC(=O)N(CC(=O)NCc2cccs2)C1=O (stereo unspecified)	-0.1%	3.3%	-15.9%	-5.7%	-1.9%	-1.4%	2.5%	-1.0%

Taken from above for reference:
SMILES	SARS PLP yeast	NS1 function inh	Marburg entry inh	RE007 growth inh	Cruzain Triton	Cruzain noTriton	2A StopGo	Lassa entry inh
Cc1ccc(S(=O)(=O)N(C)CCCC(=O)n2nc(C)cc2C)cc1	-0.3%	-3.6%	8.8%	3.0%	2.4%	10.0%	-10.9%	-0.2%
CN(C)CCCCSC(=N)N	nt	-3.4%	?	nt	-3.1%&-1.6%	-7.7%&3.3%	-4.2%&-24.4%	nt
O=C(O)c1ccc(NC(=O)c2cc3ccccc3o2)cc1	2.3%	-25.8%	nt	-8.7%	-6.1%	-4.8%	54.6%&36.0%[activator]	13.6%[46.1 µM]

Later entries.
SMILES	SARS PLP yeast	NS1 function inh	Marburg entry inh	RE007 growth inh	Cruzain Triton	Cruzain noTriton	2A StopGo	Lassa entry inh
CC1CCN(CC(C)OC(=O)c2ccco2)CC1 (stereo unspecified)	1.5%	10.3%	?	-9.2%	nt	nt	11.2%	6.2%[46.1 µM]
CCOC(=O)c1ccccc1NC(=O)COC(=O)c1c(CC)noc1C	-2.3%	nt	-11.6%	22.7%	nt	nt	?	-2.7%
CSC(=S)N/N=C/c1ccc(N(C)C)cc1	4.2%	nt	?	12.6%	nt	nt	52.0%[activator]	3.8%[46.1 µM]
Cc1nc2ccccc2c(=O)n1/N=C/c1c(O)ccc2oc3c(c12)CCCC3	2.3%	-33.6%	?	-29.8%	-2.5%	-1.2%	-10.3%	-4.1%
CCN(CCNC(=O)C1CCN(Cc2nc(-c3ccc(Cl)cc3)oc2C)CC1)c1ccccc1	-2.8%	-5.3%	?	19.1%	0.5%	-7.3%	?	?
COC(=O)c1cnc(N2CCCN(S(=O)(=O)c3ccc(C(F)(F)F)cc3)CC2)nc1C(F)(F)F	0.5%	1.2%	nt	5.9%	nt	nt	-13.7%	nt
CCCCS(=O)(=O)/C=C\C1C2C=CC(C2)C1S(=O)(=O)CCCC (stereo unspecified)	-2.0%	-4.3%	0.6%	6.4%	5.2%	8.7%	2.5%	?
Cc1nc(-c2ccc(S(=O)(=O)Nc3ccc(Br)cc3F)cc2)co1	5.9%	1.7%	nt	0.9%	nt	nt	-6.7%	nt
COc1ccc(N(C(C)C(=O)NC2CCCCCC2)S(C)(=O)=O)cc1 (stereo unspecified)	-2.0%	-5.3%	18.9%	-7.6%	-0.6%	7.0%	2.8%	?
C=CCN(c1ccccc1)S(=O)(=O)c1cc(C(=O)NC2=NCCS2)ccc1Cl	-4.3%	nt	3.7%	-0.4%	nt	nt	20.5%	-1.7%
COc1ccc2c(CNC3CCC(C)CC3)c(C(=O)O)n(Cc3ccc(F)cc3)c2c1 (stereo unspecified)	nt	nt	nt	nt	-2.5%	-2.3%	-2.1%	0.7%[46.1 µM]
CCC(C(=O)OCC(=O)Nc1cc(Cl)cc(Cl)c1)c1ccccc1 (stereo unspecified)	-69.6%	-61.6%	?	-29.1%	-8.3%	-5.1%	?	?
O=C(/C=C/c1ccccc1)CCN1CCOCC1	nt	nt	?	-91.6%	nt	nt	?	?
CN1C(=O)c2ccccc2Sc2ccc(NC(=O)N3CCN(c4ccc(F)cc4)CC3)cc21	nt	nt	?	nt	-6.9%	?	-6.6%	-19.4%[46.1 µM]
O=C(O)c1cccc(Cn2c(Cl)c(/C=N/NC(=O)c3cc4ccccc4cc3O)sc2=O)c1	0.8%	7.5%	nt	-6.9%	nt	nt	-21.3%	nt
CC1=NN(c2ccccc2)C(=O)C1/C=C1\NC(=S)NC1=O (stereo unspecified)	-0.4%	nt	-28.6%[46.1 µM]	1.5%	nt	nt	-7.8%	nt
CCOc1ccc(C(=O)NCc2ccccc2)cc1Br	-19.6%	-5.8%	-17.7%	6.1%	-5.6%	-12.0%	-7.8%	?

Whole records from above. Values in the order: SARS PLP yeast | NS1 function inh | Marburg entry inh | RE007 growth inh | Cruzain Triton | Cruzain noTriton | 2A StopGo | Lassa entry inh
COc1ccc2c(CNC3CCC(C)CC3)c(C(=O)O)n(Cc3ccc(F)cc3)c2c1 (stereo unspecified) as listed: nt | nt | nt | nt | -2.5% | -2.3% | -2.1% | 0.7%[46.1 µM]
CCOC(=O)c1ccccc1NC(=O)COC(=O)c1c(CC)noc1C as listed: -2.3% | nt | -11.6% | 22.7% | nt | nt | ? | -2.7%
CC1=NN(c2ccccc2)C(=O)C1/C=C1\NC(=S)NC1=O (stereo unspecified) as listed: -0.4% | nt | -28.6%[46.1 µM] | 1.5% | nt | nt | -7.8% | nt
Cc1nc(-c2ccc(S(=O)(=O)Nc3ccc(Br)cc3F)cc2)co1 as listed: 5.9% | 1.7% | nt | 0.9% | nt | nt | -6.7% | nt

Compound activity (PubChem BioAssay)
